AID504770: E. coli YBA685 growth inhibition, screen for V. cholerae RctB inhibitors | E. coli YBA685 rctB-dependent plasmid, OD600 growth, 3 h; active compounds read low | z-score (no concentration beside the values) | hit rate 0.27% among 130,000;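 active = z-score under -2 on both plates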;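 note: wells of about 30 µL received 100 nL stock; score is relative to mean and SD of the test wells; the first replicate is given; strong numbers were not always called active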
Ba CapD inh: CapD enzyme inhibition; purified CapD enzyme, fluorescence intensity read-out; active compounds read low; some hits fall short of the stated cut; z-score (no concentration beside the values); hit rate 0.23% among 140,000; AID 492967;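 active = z-score under -4 in either of two replicates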;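 note: stock transfer was 100 nL into about 40 µL; score is relative to mean and spread of the plate; one replicate is shown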
Starred values were filed as active, the others as inactive; · = no result given.

The line under a structure holds: AID504770	Ba CapD inh
1) N#Cc1c(Nc2ccc(Cl)cc2)s[nH]c1=O
→ 0.55	-0.3
2) O=C(/C=C/N1CCOCC1)c1cccs1
→ -1.6	-3.4
3) Cc1cc(I)cc(C)c1NC(=O)C1CC(O)CN1C(=O)Oc1ccccc1 (stereo not drawn)
→ ·	-0.05
4) Cc1nnc(NC(=O)CN2C(=O)c3cccnc3Sc3ccccc32)s1
→ 0.45	0.43
5) CCC(C)Sc1nnc(NC(=O)c2cc(Cl)ccc2OC)s1 (stereo not drawn)
→ 0	9.1
6) O=C(O)/C=C/c1ccc(Cn2ccnc2)cc1
→ ·	-0.55
7) c1ccc(Oc2nc(NCc3ccco3)nc(NCc3ccco3)n2)cc1
→ ·	-0.81
8) COC(=O)C1=CO[C@@H](C)[C@@H]2CN3CCc4c([nH]c5ccccc45)C3C[C@H]12 (stereo partly drawn)
→ ·	0.035
9) O=C(c1cccc(Cl)c1)N1CCCc2ccccc21
→ -0.65	0.2
10) COC(=O)c1cc(OC(=O)c2nn(-c3ccccc3)nc2C)n(-c2ccccc2)n1
→ -0.6	0.49
11) COc1cccc(CNC(C)C(=O)O)c1O (stereo not drawn)
→ ·	-0.46
12) COc1ccc(Cl)cc1Nc1nc2cc(C)ccc2cc1C#N
→ -0.2	4
13) C=CCOC(=O)C1=C(C)NC(SCC(=O)Nc2nccs2)=C(C#N)C1c1ccco1 (stereo not drawn)
→ ·	0.67
14) CCOC(=O)N1CCN(S(=O)(=O)c2ccc(C)cc2)C1C(C)C (stereo not drawn)
→ 2.6	-0.69
15) CC(C)(C)CC(=O)Nc1c(-c2cccs2)nc2ccccn12
→ -0.85	69
16) O=C(O)c1ccccc1C(=O)c1ccccc1
→ 0.3	0.44
17) COC(=O)C(Cc1ccc(F)cc1)(Cc1ccc(F)cc1)C(C)=O
→ ·	-0.63
18) CC(C)(CC(=O)O)CC(=O)Nc1cccc(C(=O)O)c1
→ -0.65	-0.47
19) O=[N+]([O-])c1cc(F)ccc1-n1cccc1
→ ·	-0.02
20) CN1C(=O)C(O)(CC(=O)/C=C/c2ccco2)c2ccccc21 (stereo not drawn)
→ -0.45	-2.7
21) CCCc1nc2ccccc2c2c1C(=O)N(C1CCN(Cc3c(C)nn(-c4ccccc4)c3C)C1)C2=O (stereo not drawn)
→ ·	-0.095
22) O=C(COCC(=O)c1ccccc1)Sc1nc2ccccc2o1
→ 0.45	-0.17
23) CN(C)/C=N/n1cnnc1
→ -0.15	·
24) COC(=O)C1=C(C)NC(C)=C(C#N)C1c1cccs1 (stereo not drawn)
→ -1.6	5.6
25) Cc1cc(O)c(C(=O)/C=C/N(C)C)c(=O)o1
→ -0.8	-2.3
26) O=C(O)Cc1cc(=O)n(C2CCS(=O)(=O)C2)[nH]1 (stereo not drawn)
→ 1.8	·
27) CCOC(=O)c1c(N)nc(SC)n1Cc1ccco1
→ 2	0.06
28) O=C1c2ccccc2C2(O)NC(=S)NC12O (stereo not drawn)
→ -0.5	0.14
29) O=C(NC12CCC(O)C(SC1)/C2=N/O)c1ccccc1 (stereo not drawn)
→ -0.55	·
30) O=C(Nc1ccc(Br)cc1F)C1CSC(c2ccncc2)=N1 (stereo not drawn)
→ -0.4	·
31) Cc1cc(Br)ccc1S(=O)(=O)Nc1ccnn1C
→ ·	-0.2
32) O=P1(c2ccccc2)C=CCC1 (stereo not drawn)
→ 1.6	·
33) CN(Cc1ccccc1)S(=O)(=O)c1ccc(C(=O)Nc2ccc(-c3nc4ccccc4[nH]3)cc2)cc1
→ -0.15	3.5
34) COc1c(I)cccc1C1Nc2ccc3ccccc3c2C2=C1C(=O)CC(C)(C)C2 (stereo not drawn)
→ ·	-0.24
35) CCOC(=O)C1=C(CCl)OC(N)=C(C#N)C1c1ccc(F)c(Br)c1 (stereo not drawn)
→ ·	-0.39
36) COc1cc(OC)c(OC)cc1CNCc1cccnc1
→ -0.35	·
37) CSc1c(C#N)c(-c2ccccc2)nn1C
→ 2.9	-0.3
38) FC(F)(F)c1ccccc1/C=N\N1CCN(c2ccccc2)CC1
→ -1	0.17
39) CCc1cc(CC)c(CO)c(CC)c1CO
→ 0.05	0.23
40) CCN(CC)C(=O)Nc1cccc(Cl)c1
→ 0.4	0.47
41) COc1ccc(-c2nc(CS(=O)(=O)c3ccc(F)cc3)no2)cc1OC
→ -0.85	11
42) COc1ccccc1NC(=O)Cc1noc(COC(=O)c2ccc(SC)cc2OC)n1
→ 2.8	·
43) CCOC(=O)N1CCC(NC(=O)c2cc3c(=O)oc4ccccc4c3s2)CC1
→ -1.8	-0.55
44) COc1cc2c(cc1OC)C(CC(=O)O)c1cc(OC)c(OC)cc1C(=O)C2 (stereo not drawn)
→ -0.1	·
45) O=C1C2C3C=CC(CC3)C2C(=O)N1c1ccc(Br)cc1[N+](=O)[O-] (stereo not drawn)
→ ·	-0.1
46) CCN(C(=O)COc1ccccc1C#N)C12CC3CC(CC(C3)C1)C2
→ -0.1	·
47) CCOc1ccc(CCNC(=O)c2cc3oc4ccccc4c3n2CC)cc1OCC
→ -1.1	1.3
48) N#CCSc1nc2ccccc2c(=O)n1C1CCCCC1
→ -0.6	-0.73
49) COc1ccc(Nc2nc(Cl)nc(Nc3ccc(OC)c(OC)c3)n2)cc1OC
→ ·	-0.58
50) CC(C)(C)OC(=O)N1CCc2c(sc(N)c2C#N)C1
→ 0.9	·
51) CSc1sc(I)cc1/C=N/NC(=O)c1nnn(-c2nonc2N)c1-c1ccccc1
→ ·	0.22
52) O=C(/C=C\c1ccccc1)Nc1ccc(-c2cn3cccnc3n2)cc1
→ 1.6	-0.84
53) O=C(/C=C/c1ccco1)NNC(=O)OCCN1CCN(c2ccc(C(F)(F)F)cn2)CC1
→ ·	-1
54) C=CCC(NCc1ccccc1)c1ccc(C)o1 (stereo not drawn)
→ -1.4	1.8
55) O=C1CCC(=O)N1c1ccc(CSc2nnnn2C2CCCCC2)cc1
→ 0	0.15
56) O=C1c2ccccc2C(=O)N1/N=C/c1ccc2c(c1)OCCO2
→ -0.45	·
57) Fc1ccc(CSc2nnc(-c3cc4c(s3)-c3ccccc3CC4)o2)cc1
→ ·	42
58) CC(=O)Nc1ccc(Br)cc1Cl
→ -0.4	-0.005
59) CSc1nc(N)nc(N2CCCC2)n1
→ ·	0.21
60) O=C(C1CCC(CNS(=O)(=O)c2ccccc2)CC1)N1CCCC1 (stereo not drawn)
→ 0.7	-0.81

New compounds follow.
The line under a structure holds: AID504770	Ba CapD inh
61) COc1cc(/C=C2\N=C(C)OC2=O)cc(OC)c1
→ 0.35	-0.53
62) CN1C(=O)CN(C2CCCCC2)C1=O
→ -1.1	1.9
63) CCCn1c(N)c(C(=O)CN2c3ccccc3CC2C)c(=O)n(C)c1=O (stereo not drawn)
→ 0.15	·
64) CC1CC1COC(=O)NNC(=O)CNS(=O)(=O)c1cccc2nsnc12 (stereo not drawn)
→ ·	-0.56
65) CC(=O)Nc1ccc(-c2cc(C(=O)O)nc3n[nH]c(-c4ccccc4)c23)cc1
→ -1.1	45
66) COCCNC(=O)C12CC3CC(C1)CC(C(=O)NCCOC)(C3)C2
→ -1.6	·
67) CC1CCN(C=C(S(=O)(=O)c2ccccc2)S(=O)(=O)c2ccccc2)CC1
→ 1.6	-0.29
68) COC(=O)c1cnc(NCCCN2CCOCC2)c2ccccc12
→ -1	65
69) CN1CCN(CCCNC(=O)OCCCCc2ccccc2)CC1
→ ·	-0.71
70) Cc1cc(C(=O)COC(=O)/C=C/c2ccco2)c(C)n1-c1ccc(F)cc1
→ 0.05	·
71) OC(CNCc1ccccc1)Cn1c2ccc(Cl)cc2c2cc(Cl)ccc21 (stereo not drawn)
→ -1.1	2.8
72) COc1ccc(C(=O)NNC(=O)OCCCCc2ccc([N+](=O)[O-])cc2)cc1
→ ·	-0.015
73) COc1ccc(OC)c(C2=NOC(C(=O)N(C)C3CCCCC3)C2)c1 (stereo not drawn)
→ -0.95	-0.59
74) CCCN(CCC)CC(O)CN1C(=O)N(CN2C(=O)N(CC(O)CN(CCC)CCC)C(=O)C2(C)C)C(C)(C)C1=O (stereo not drawn)
→ -1.1	0.23
75) COc1ccc(C2CC(=O)Nc3c2cc(Br)c2ccccc32)c(OC)c1 (stereo not drawn)
→ ·	-0.32
76) CCC(=O)N1CCCc2cc(S(=O)(=O)CCC(=O)Nc3ccc(CC)cc3)ccc21
→ 0.2	0.59
77) Cn1c2c(c(=O)n(C)c1=O)CN(CCO)CN2
→ ·	0.15
78) CCOC(=O)C1=C(SCC(=O)Nc2ccccc2)NC(=O)C(C#N)C12CCCCC2 (stereo not drawn)
→ -1	0.17
79) COC(=O)c1ccc(CS(=O)(=O)c2ccccc2)o1
→ 2.2	-0.88
80) O=S(=O)(c1cc(Cl)ccc1Cl)N1CCNCC1
→ -0.2	0.45
81) COC(=O)c1c(NC(C)=O)c2c(C)c(C)sc2n1Cc1nc(-c2cccs2)oc1C
→ -0.5	0.57
82) CC(=O)N1CCC(N(C(=O)CSc2nc3ccccc3[nH]2)C2CC2)CC1
→ ·	0.07
83) CC(=O)NCCNC(=O)OCCC(C)c1ccccc1 (stereo not drawn)
→ ·	-0.23
84) Cc1ccc(CNC2=CC(=O)CC(C)(C)C2)cc1
→ -0.2	·
85) O=S1(=O)CC(O)C(S(=O)(=O)c2ccc(Cl)cc2)C1 (stereo not drawn)
→ -0.8	0.42
86) c1cc2c(cc1CN1CCNCC1)OCO2
→ 1.6	·
87) O=C(CCSCc1cnn(-c2ccccc2)c1-n1cccc1)NCC1COCCO1 (stereo not drawn)
→ 0.45	-0.15
88) O=C1OC(=Nc2ccccc2)c2ccccc21
→ 2.6	-0.015
89) O=C1NCC(=Nc2ccccc2)C(=O)N1
→ -1.2	0.24
90) O=C(CSCCc1ccccn1)Nc1cccnc1
→ -0.3	-0.085
91) Cc1ccccc1CS/C(Nc1ccccc1C)=C(\C#N)C(=O)NCc1ccco1
→ ·	-0.43
92) Cc1cc(C)cc(NC(=O)Cc2cccs2)c1
→ -0.55	0.015
93) Cc1nnsc1C(=O)N(Cc1ccc(Cl)cc1)Cc1ccco1
→ -0.45	·
94) COc1cc(OC)c(CN2CCN(C(=O)OCc3c(F)ccc(F)c3F)CC2)c(OC)c1
→ ·	1.3
95) O=C(NC1CCCCC1)c1cccc(Cn2cc(Cl)cn2)c1
→ -0.7	-2
96) CNC(=S)Nc1ccc(S(N)(=O)=O)cc1
→ 0.1	-0.045
97) CCOC(=O)Cc1csc(NC(=O)C2C3C=CC(C3)C2C(=O)O)n1 (stereo not drawn)
→ 0.2	0.11
98) O=S(=O)(c1ccsc1)N1CC=C(c2ccccc2)CC1
→ 0.15	-0.3
99) C=CCn1c(=O)c2ccccc2n2c(SCC(=O)NC3CCS(=O)(=O)C3)nnc12 (stereo not drawn)
→ 0.3	·
100) CCCn1cc(C(=O)O)c(C)n1
→ -0.15	-0.16
101) O=C(COCc1cc(-c2ccc(F)cc2)on1)N1CCCC1
→ -1.4	0.28
102) Cc1[nH]nc(-c2cccs2)c1C(=O)NN
→ -0.45	11
103) Cc1ccc(NC(=O)c2cc3cc4c5c(c3oc2=N)CCCN5CCC4)cc1
→ 0.1	-0.21
104) COc1ccc2cc(C(=O)NC(C)=O)c(=Nc3cccc(C(F)(F)F)c3)oc2c1
→ ·	1.2
105) CCOC(=O)CSc1nc2cc(C(=O)N3CCC4(CC3)OCCO4)ccc2c(=O)n1Cc1ccc2c(c1)OCO2
→ ·	-0.84
106) CNC(=S)N1N=C(c2ccccc2)CC1c1cc2ccc(C)cc2nc1Cl (stereo not drawn)
→ 1.6	2.9
107) COc1cc(/C=N/NC(=S)N/N=C/c2ccc(O)c(OC)c2)ccc1O
→ ·	2.3
108) COc1ccc(N2CCN(c3ncnc4sc(C(=O)Nc5ccc6c(c5)OCO6)c(C)c34)CC2)cc1
→ ·	0.02
109) NC(=O)COc1cccc2cccnc12
→ -1.1	2.7
110) ClC1(Cl)CC1CSC1=NCCN1 (stereo not drawn)
→ 0.2	0.84
111) O=C(N=Nc1c(O)[nH]c2ccccc12)c1cccc(S(=O)(=O)N2CCCCC2)c1
→ -0.45	·
112) O=C(Cn1c(C(F)(F)F)nc2ccccc21)NCCN1CCOCC1
→ 0.35	-0.06
113) COc1ccc(N(CC(=O)Nc2ccc(Cl)cc2C)S(=O)(=O)c2ccccc2[N+](=O)[O-])c(OC)c1
→ ·	-0.48
114) CC(=O)N(Cc1ccccc1)C1CC(C)(C)n2cccc21 (stereo not drawn)
→ ·	0.5
115) O=C(Nc1ccc(F)cc1)N1CCN(C(=O)C2COc3ccccc3O2)CC1 (stereo not drawn)
→ 0.05	0.43
116) COC(=O)c1cccc(N/C=C(\[N+](=O)[O-])S(=O)(=O)c2ccccc2)c1
→ ·	0.28
117) CCOC(=O)Nc1ccc(S(N)(=O)=O)cc1
→ 0.5	·

Screening results as filed in PubChem BioAssay.

Not all compounds are listed; the hit share may differ from the screen's.
